Vaccinia inh: blocks a specific stage of Vaccinia orthopoxvirus infection; Vaccinia-infected cells, mCherry/Venus stage reporter fluorescence; stronger effect = lower value; some inactives read as strong as hits; 89,000 compounds, 0.01% hits; activity change (mCherry), % (concentration not given with the values);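 active means mCherry past -33% and 40 or more points under the early reporter, replicates agreeing; inconclusive means past -33% without that gap or agreement; tested in A549 cells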;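 further: scaled between vehicle wells and reference inhibitor wells; 23 nL library stock went into each well; one replicate is shown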
Vaccinia inh Venus: further read-out of Vaccinia inh, marked with its call; activity change (Venus), %; measured here: Venus reporter, other viral stage;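 negative = less Venus signal; first of two replicates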
Starred values were filed as active, the others as inactive; u = inconclusive; x = not tested or not shown; & = joins results of further samples.

Molecule	Vaccinia inh	Vaccinia inh Venus
C[C@@H]1CN([C@@H](C)CO)S(=O)(=O)c2ccc(-c3ccc(C(=O)N(C)C)cc3)cc2O[C@H]1CN(C)C(=O)C1CCC1	7.3	10.2
CS(=O)(=O)Nc1ccc2c(c1)[C@H]1C[C@H](CC(=O)NCc3ccccn3)O[C@@H](CO)[C@H]1O2	1.9	4.4
C[C@H]1CN([C@@H](C)CO)C(=O)c2cccc(NS(=O)(=O)c3ccc(Cl)cc3)c2O[C@H]1CN(C)C(=O)NC1CCCCC1	-34.1	-28.9
C[C@H](CO)N1C[C@H](C)[C@H](CN(C)C(=O)Nc2cccc3ccccc23)Oc2c(NC(=O)c3cnccn3)cccc2C1=O	5.0	2.7
C[C@@H]1CN([C@@H](C)CO)C(=O)c2cccc(NS(=O)(=O)c3cccs3)c2O[C@@H]1CN(C)Cc1ccncc1	8.7	10.7
CC(=O)N1CCCCN2[C@H](CO)[C@H](c3ccc(-c4cccc(C(=O)N(C)C)c4)cc3)[C@H]2C1	37.7	17.0
CC(C)C#Cc1ccc([C@H]2[C@H]3CN(S(=O)(=O)c4ccccc4)CC(=O)N3[C@H]2CO)cc1	-32.1	-23.0
Cc1noc(C)c1S(=O)(=O)N(C)C[C@H]1Oc2ccc(NC(=O)CCN3CCOCC3)cc2CC(=O)N([C@@H](C)CO)C[C@H]1C	19.8	14.5

Additional compounds follow.
Molecule	Vaccinia inh	Vaccinia inh Venus
Cc1noc(C)c1S(=O)(=O)Nc1ccc2c(c1)C(=O)N([C@@H](C)CO)C[C@H](C)[C@H](CN(C)S(=O)(=O)c1cccs1)O2	2.3	3.9
CO[C@@H]1CN(C)C(=O)c2ccc(NC(=O)Nc3cccc(F)c3)cc2OC[C@H](C)N(C)C[C@@H]1C	-8.6	-3.5
COc1ccc(S(=O)(=O)Nc2cccc3c2O[C@H](CN(C)C(=O)NC(C)C)[C@@H](C)CN([C@H](C)CO)C3=O)cc1	10.9	10.4
O=C(Nc1ccc2c(c1)OCO2)N[C@@H]1CC[C@@H](CC(=O)N2CCN(c3ccccc3)CC2)O[C@H]1CO	-16.4	-7.2
Cc1noc(C)c1NC(=O)Nc1ccc2c(c1)CC(=O)N([C@H](C)CO)C[C@H](C)[C@H](CN(C)S(=O)(=O)c1ccccc1)O2	7.0	18.8
COc1ccc(NC(=O)N2CCCCN3[C@H](C2)[C@H](c2ccc(C4=CCCC4)cc2)[C@@H]3CO)cc1	-2.9	-23.3
COc1ccccc1-c1ccc2c(c1)O[C@@H](CN(C)C(=O)Nc1ccccc1)[C@H](C)CN([C@H](C)CO)S2(=O)=O	-18.4	-15.8
Cc1noc(C)c1NC(=O)Nc1ccc2c(c1)CC(=O)N([C@@H](C)CO)C[C@H](C)[C@@H](CN(C)S(=O)(=O)c1ccccc1)O2	3.2	2.9

Going on with the list.
Molecule	Vaccinia inh	Vaccinia inh Venus
CN(C)CC(=O)N[C@H]1CC[C@H](CCNC(=O)C2CC2)O[C@H]1CO	6.9	7.5
CN1CCN(C(=O)C[C@@H]2CC[C@@H](NC(=O)c3ccc4c(c3)OCO4)[C@@H](CO)O2)CC1	-0.8	-0.4
C[C@@H]1CN([C@H](C)CO)C(=O)c2cc(NC(=O)Cc3ccccc3)ccc2O[C@@H](C)CCCCO[C@@H]1CN(C)C(=O)Cc1ccccc1	0.8	0.2
Cc1ccc(S(=O)(=O)N(C)C[C@@H]2OCCCC[C@@H](C)Oc3ccc(NC(=O)NC4CCCCC4)cc3C(=O)N([C@@H](C)CO)C[C@@H]2C)cc1	-5.1	-6.1
COc1ccc(NC(=O)Nc2ccc3c(c2)C(=O)N([C@@H](C)CO)C[C@H](C)[C@@H](CN(C)C(=O)CCCN(C)C)OCCCC[C@H](C)O3)cc1	30.3	17.1
C[C@@H]1CN([C@H](C)CO)C(=O)c2cc(NC(=O)CCC(F)(F)F)ccc2O[C@@H]1CN(C)S(=O)(=O)c1ccccc1	-9.7	-3.8
C[C@H]1CN([C@@H](C)CO)S(=O)(=O)c2ccc(C#Cc3cccc(F)c3)cc2O[C@@H]1CN(C)C	-15.7	-16.4
C[C@H]1CCCCO[C@H](CN(C)C)[C@@H](C)CN([C@@H](C)CO)C(=O)c2cc(NC(=O)CCCCCC(=O)Nc3ccccc3N)ccc2O1	18.9	4.1

Reformatted: four of the compounds above
Value order: Vaccinia inh, Vaccinia inh Venus
C[C@H]1CCCCO[C@H](CN(C)C)[C@@H](C)CN([C@@H](C)CO)C(=O)c2cc(NC(=O)CCCCCC(=O)Nc3ccccc3N)ccc2O1
    18.9, 4.1
CN1CCN(C(=O)C[C@@H]2CC[C@@H](NC(=O)c3ccc4c(c3)OCO4)[C@@H](CO)O2)CC1
    -0.8, -0.4
CN(C)CC(=O)N[C@H]1CC[C@H](CCNC(=O)C2CC2)O[C@H]1CO
    6.9, 7.5
C[C@H]1CN([C@@H](C)CO)S(=O)(=O)c2ccc(C#Cc3cccc(F)c3)cc2O[C@@H]1CN(C)C
    -15.7, -16.4

More records follow:
Molecule	Vaccinia inh	Vaccinia inh Venus
COc1ccccc1NC(=O)N[C@@H]1CC[C@@H](CCNS(=O)(=O)c2ccc(F)cc2)O[C@@H]1CO	-7.2	-3.0
C[C@@H]1CN([C@H](C)CO)S(=O)(=O)c2ccc(C#CC3CCCCC3)cc2O[C@H]1CN(C)Cc1cccnc1	u	x
CC(C)NC(=O)N[C@H]1C=C[C@@H](CC(=O)N2CCCCC2)O[C@@H]1CO	26.1	17.1
CCC(=O)Nc1ccc2c(c1)C(=O)N(C)[C@@H]1CC[C@@H](CC(=O)NCCN3CCCCC3)O[C@H]1CO2	11.5	14.0
O=C(O)C[C@@H]1C[C@H]2c3cc(NC(=O)Nc4ccccc4F)ccc3O[C@H]2[C@@H](CO)O1	3.7	-0.9
C[C@H](CO)N1C[C@H](C)[C@H](CN(C)Cc2ccncc2)Oc2ccc(NS(C)(=O)=O)cc2CC1=O	-1.0	4.2
CN(C)C(=O)c1ccc(-c2ccc([C@H]3[C@H]4CN(CCC(F)(F)F)CCCCN4[C@H]3CO)cc2)cc1	-10.4	-14.1
CN1C(=O)c2cc(NC(=O)c3ccc(F)c(F)c3)ccc2OC[C@@H]2O[C@@H](CC(=O)N3CCOCC3)CC[C@H]21	-4.0	2.7

The list goes on.
Molecule	Vaccinia inh	Vaccinia inh Venus
CN(C[C@@H]1[C@H](c2ccccc2)[C@@H](CO)N1Cc1ccccn1)S(C)(=O)=O	-1.6	5.1
COC(=O)C[C@H]1CC[C@@H]2[C@H](COc3ccc(NC(=O)c4cscn4)cc3C(=O)N2C)O1	-3.0	-2.6
C[C@@H]1CCCCO[C@@H](CN(C)C(=O)Nc2ccc(C(F)(F)F)cc2)[C@@H](C)CN([C@@H](C)CO)C(=O)c2cc(NC(=O)C3CCCCC3)ccc2O1	-3.5	2.2
C[C@H](CO)N1C[C@H](C)[C@@H](CN(C)Cc2ccncc2)Oc2c(NS(=O)(=O)c3cn(C)cn3)cccc2C1=O	-0.3	-4.6
O=C1CN(Cc2ccc(F)cc2)C[C@H]2[C@@H](c3ccc(Br)cc3)[C@H](CO)N12	6.3	-1.2
C[C@H]1CN([C@@H](C)CO)C(=O)c2cc(NC(=O)Cn3cnnn3)ccc2O[C@@H]1CN(C)S(C)(=O)=O	37.7	18.7
OC[C@H]1[C@@H](c2ccc(-c3ccccc3)cc2)[C@@H]2CN(Cc3cncnc3)CCCCN12	-12.6	-30.6
O=C(Nc1ccc2c(c1)[C@H]1C[C@@H](CC(=O)N3CCc4ccccc4C3)O[C@H](CO)[C@H]1O2)C1CCC1	1.9	6.8

Other entries follow.
Molecule	Vaccinia inh	Vaccinia inh Venus
C[C@H]1CCCCO[C@@H](CN(C)C(=O)Nc2ccc3c(c2)OCO3)[C@@H](C)CN([C@@H](C)CO)C(=O)c2cc(NC(=O)C3CCCCC3)ccc2O1	-27.2	-16.0
C[C@@H]1CN([C@H](C)CO)C(=O)c2c(c3ccccc3n2C)-c2ccccc2CO[C@@H]1CN(C)C(=O)Nc1ccccc1	-25.5	-26.2
C[C@@H]1CN([C@@H](C)CO)C(=O)c2cc(Br)cnc2O[C@@H]1CN(C)S(=O)(=O)c1ccccc1	13.5	9.8
C[C@@H]1CN([C@@H](C)CO)C(=O)Cc2cc(NC(=O)C3CC3)ccc2O[C@H]1CN(C)Cc1ccc(C(=O)O)cc1	0.0	2.7
COc1ccccc1C#Cc1ccc([C@H]2[C@H](CO)N3CCCCN(C(=O)C4CCCC4)C[C@@H]23)cc1	u	x
CC(C)NC(=O)N(C)C[C@@H]1Oc2ccc(NC(=O)Nc3cccc4ccccc34)cc2C(=O)N([C@@H](C)CO)C[C@H]1C	15.6	19.3
COc1ccccc1-c1ccc(C2[C@@H]3CN(S(=O)(=O)c4ccccc4OC)C[C@H]2N3)cc1 (stereo partly drawn)	14.8&-24.6	5.0&-22.5
O=C(C[C@H]1CC[C@H]2NC[C@@H](O)COC[C@@H]2O1)Nc1ccccc1	1.8	-2.7

Going on with the list:
Molecule	Vaccinia inh	Vaccinia inh Venus
Cc1ccc(S(=O)(=O)N(C)C[C@H]2Oc3c(NC(=O)NC4CCCCC4)cccc3C(=O)N([C@@H](C)CO)C[C@H]2C)cc1	-24.8	-14.6
COc1ccc(NC(=O)Nc2ccc3c(c2)C(=O)N([C@@H](C)CO)C[C@@H](C)[C@@H](CN(C)C(=O)NC(C)C)OCCCC[C@@H](C)O3)cc1	-7.4	-8.2
C[C@@H]1CN([C@@H](C)CO)S(=O)(=O)c2ccc(C#Cc3ccc(F)cc3)cc2O[C@H]1CN(C)S(=O)(=O)c1cn(C)cn1	u	x
C[C@H]1CN([C@@H](C)CO)C(=O)c2cc(C3=CCCC3)cnc2O[C@H]1CN(C)Cc1ccccc1F	1.5	-8.4
O=C(C1CCC1)N1[C@@H](CO)[C@@H](c2ccccc2)C12CN(Cc1cccc(Cl)c1)C2	10.2	14.1
CC(=O)N(C)C[C@@H]1Oc2cc(C#CC(C)C)ccc2S(=O)(=O)N([C@@H](C)CO)C[C@H]1C	-12.5	-13.2
CCCNC(=O)[C@@H]1[C@@H](CO)[C@@H]2Cn3c(ccc(-c4ccccc4F)c3=O)[C@@H]2N1CCC	7.4	1.2
C[C@H](CO)N1C[C@H](C)[C@H](CN(C)C(=O)Nc2ccc(C(F)(F)F)cc2)Oc2ccc(NS(=O)(=O)c3cn(C)cn3)cc2C1=O	17.8	11.8

(next part)
Molecule	Vaccinia inh	Vaccinia inh Venus
CO[C@@H]1CC[C@@H]2CCN(C)C(=O)[C@H](C)[C@H](OC)CN(C)C(=O)c3cc(C#N)ccc3OC[C@@H]1O2	13.9	4.3
COc1ccc(S(=O)(=O)Nc2ccc3c(c2)C(=O)N([C@@H](C)CO)C[C@@H](C)[C@@H](CN(C)C(=O)NC2CCCCC2)OCCCC[C@H](C)O3)cc1	4.6	10.5
C[C@H](CO)N1C[C@H](C)[C@H](CN(C)Cc2ccncc2)Oc2ccc(NC(=O)c3ccncc3)cc2C1=O	6.1	5.0
O=C(C1CCOCC1)N1CC[C@@H]2[C@@H](CO)Nc3ccc(Br)cc3[C@@H]21	-25.2	-11.8
C[C@@H]1CN([C@@H](C)CO)C(=O)Cc2cc(N(C)C)ccc2O[C@H]1CN(C)Cc1ccc2c(c1)OCO2	-4.6	-11.4
C[C@@H]1CCCCO[C@H](CN(C)C(=O)c2ccccc2)[C@H](C)CN([C@@H](C)CO)C(=O)c2cc(NC(=O)CCCCCC(=O)Nc3ccccc3N)ccc2O1	-5.4	1.7
CCC(=O)N1C[C@H]2[C@@H](c3ccccc31)[C@@H](CO)N2Cc1ccc(F)cc1	-5.0	2.0
Cc1noc(C)c1NC(=O)N(C)C[C@@H]1Oc2ncc(C#CC3CC3)cc2C(=O)N([C@@H](C)CO)C[C@@H]1C	10.2&6.5	9.3&-3.7

Next compounds.
Molecule	Vaccinia inh	Vaccinia inh Venus
C[C@H](CO)N1C[C@H](C)[C@@H](CN(C)Cc2ccc(C(=O)O)cc2)Oc2cc(/C=C/c3ccccc3)ccc2S1(=O)=O	u	x
COCC#Cc1ccc2c(c1)O[C@H](CN(C)C(=O)COC)[C@@H](C)CN([C@H](C)CO)S2(=O)=O	10.3	9.2
COc1ccc(S(=O)(=O)Nc2cccc3c2O[C@@H](CN(C)Cc2ccc(-c4ccccc4)cc2)[C@@H](C)CN([C@@H](C)CO)C3=O)cc1	-30.7	-14.1
COCC1CC(c2ccccc2)OC(c2ccc(NC(=O)CCCCCCC(=O)O)cc2)O1 (stereo not drawn)	10.7	1.0
CN(C)C(=O)c1ccc(-c2ccc([C@@H]3[C@H]4CN(C(=O)C5CCCC5)CC(=O)N4[C@H]3CO)cc2)cc1	-1.3	1.8
CN1C[C@H]2[C@@H](c3ccccc31)[C@@H](CO)N2C(=O)CN1CCOCC1	9.3	3.4
CN(C)C(=O)c1cccc(-c2ccc3c(c2)[C@H]2[C@H](CCN2C(=O)C2CCCC2)[C@H](CO)N3)c1	u	x
COc1ccc(CNC(=O)C[C@H]2CC[C@@H](NC(=O)c3ccc4c(c3)OCO4)[C@@H](CO)O2)cc1	1.1	-0.9

New compounds follow
Molecule	Vaccinia inh	Vaccinia inh Venus
C[C@@H]1CN([C@@H](C)CO)C(=O)Cc2cc(NC(=O)Cc3ccccc3)ccc2O[C@H]1CN(C)C(=O)Nc1ccccc1	10.6	6.2
O=C(CN1CCOCC1)NCC[C@H]1CC[C@H](NC(=O)Cc2ccccn2)[C@@H](CO)O1	-1.8	-0.1
CCCNC(=O)N1C[C@H](C)[C@@H](OC)CN(C)C(=O)c2ccc(NS(=O)(=O)CC(F)(F)F)cc2OC[C@@H]1C	7.5	4.1
O=C(Cc1ccccc1)N1CC(=O)N2[C@H](CO)[C@@H](c3ccc(-c4ccc(F)cc4)cc3)[C@H]2C1	u	x
C[C@@H]1CN([C@@H](C)CO)S(=O)(=O)c2ccc(-c3ccc(C(=O)N(C)C)cc3)cc2O[C@@H]1CN(C)C(=O)C1CCC1	19.5	6.5
O=C(C[C@@H]1CC[C@H](NC(=O)C2CCC2)[C@H](CO)O1)NCc1ccncc1	11.1	5.7

A portion of the library (hit frequency here may not be typical).
